HSD17B inh – qHTS Assay for Inhibitors of HSD17B4, hydroxysteroid (17-beta) dehydrogenase 4; Potency, µM (titrated, usually from 57.1 µM), for inactives: at the top dose activity change, negative = inhibition, actives largely listed as inhibitors; 7.6% of 75,000 active; 3-hydroxyacyl-CoA dehydrogenase type-2 (Homo sapiens), Q99714; recombinant HSD17B10, NADH fluorescence kinetic; many of its hits are not listed in these tables; active means well fitted inhibition curve with a large enough effect; inconclusive means small, poorly fitted or top-dose-only effect; inactive means no such curve, though single readings can be large or run the other way;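 further: the protocol describes HADH2 (HSD17B10) and not the HSD17B4 of the title; nearly all actives have a fitted effect of over 70% in size; most hits overshoot -100% by far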
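Enzyme plus compound, 15 min room temperature; substrate mix added (NAD+ 1 mM, beta-hydroxybutyryl-CoA 90 uM final); plates read kinetically for NADH fluorescence. HADH2 was His-tagged, E. coli-derived, 20 nM.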
Active calls of the source: *; i = inactive; ? = inconclusive; [ ] = dose if it differs, or a comment. On the % scale 0 is the no-effect control and ±100 the full control effect; potency means the concentration at half of the fitted maximal effect. Some of the compounds tested; count on the stated rates, not on these rows.

Start of the listing, in advance:
SMILES | HSD17B inh
O=C(CN1C(=O)NC2(CCCC2)C1=O)Nc1cccc(-c2nnc3n2CCCCC3)c1 | 10%
O=c1c(O)c(-c2ccccc2)oc2cc(O)ccc12 | ?

Results, from the first entry:
SMILES | HSD17B inh
O=C(CN1C(=O)NC2(CCCC2)C1=O)Nc1cccc(-c2nnc3n2CCCCC3)c1 | 10%
O=c1c(O)c(-c2ccccc2)oc2cc(O)ccc12 | ?
Cc1ccc(C(=O)COc2cccc(NC(=O)c3ccco3)c2)cc1 | -15%
CCOC(=O)N1CCN(S(=O)(=O)c2ccc3c(c2)SCC(=O)N3)CC1 | -6%
O=C(NCCCN1CCOCC1)C1CC(=O)N(C2CCCCC2)C1 (stereo not drawn) | 8%
CC1CCCC(C)N1CCNC(=O)C1CCN(S(=O)(=O)N2CCCCC2)CC1 (stereo not drawn) | 6%
O=C(c1ccccc1)c1ccc2nc(N3CCCCC3)c3nncn3c2c1 | ?
CCCCc1nc(SCC(=O)Nc2cc(C)on2)n[nH]1 | 5%
Cc1nc2cnc(N(C)C)nc2n(Cc2cccs2)c1=O | 32µM*
CC1CCN(C(=O)CSc2nc(N)c3c4c(sc3n2)CN(C)CC4)CC1 | ?
O=C(Nc1cccnc1)c1coc(=O)c2ccccc12 | i
C[C@@H](C(=O)NCc1ccccn1)[C@@H]1C[C@@]1(C)[C@@H](NC(=O)OCc1ccccc1)c1ccccc1 | 6%
COc1ccc2c(c1)cc1n2CCN=C1N | ?
CN(Cc1ccco1)c1nc(-c2cccc(C#N)c2)nc2ccccc12 | ?
CC1=C(C(=O)NCCCOC(C)C)C2(CCC(C)CC2)OC1=O (stereo not drawn) | 8%
Cc1cc(C)c2nc(N3CCC(C(=O)N4CCCC4)CC3)sc2c1 | -8%
Clc1cccc(OCCn2cncn2)c1Cl | 1%
CCN(CC)CCCn1c(=S)[nH]c2ccccc2c1=O | 3%
CCC(=O)N1CCc2cc(S(=O)(=O)NC(Cc3ccccc3)C(=O)NC3CCCC3)ccc21 (stereo not drawn) | -2%
COc1ccc(C(=O)N2CCC3(CCCN(Cc4ccccc4OC)C3)CC2)cc1 | -4%

Seven entries drawn at random from those above, as already listed:
SMILES | HSD17B inh
O=C(c1ccccc1)c1ccc2nc(N3CCCCC3)c3nncn3c2c1 | ?
CCOC(=O)N1CCN(S(=O)(=O)c2ccc3c(c2)SCC(=O)N3)CC1 | -6%
Cc1ccc(C(=O)COc2cccc(NC(=O)c3ccco3)c2)cc1 | -15%
Cc1cc(C)c2nc(N3CCC(C(=O)N4CCCC4)CC3)sc2c1 | -8%
CCCCc1nc(SCC(=O)Nc2cc(C)on2)n[nH]1 | 5%
CC1CCN(C(=O)CSc2nc(N)c3c4c(sc3n2)CN(C)CC4)CC1 | ?
O=C(CN1C(=O)NC2(CCCC2)C1=O)Nc1cccc(-c2nnc3n2CCCCC3)c1 | 10%

Going on with the list:
SMILES | HSD17B inh
C[n+]1c2cc(N)ccc2cc2ccc(N)cc21 | -6%
c1ccc(-c2nc3ccccc3s2)nc1 | ?
Cn1cccc1Cc1nnc(SCC(=O)N2CCc3ccccc32)n1-c1ccc(F)cc1 | 2%
CC(C)c1nc2oc3c(NCC4CCCO4)ncnc3c2c2c1COC(C)(C)C2 (stereo not drawn) | 98%[activator]
COc1cc(CSc2nnnn2-c2ccc(C)cc2)cc(OC)c1OC | 0%
O=C(NCCc1c[nH]c2ccccc12)[C@H]1C[C@@H]1[C@H](NP(=O)(c1ccccc1)c1ccccc1)c1ccccc1 | -2%
COc1ccc(OC)c(C(=O)CC2OC(=O)c3ccccc32)c1 (stereo not drawn) | -20%
Cc1ccc(N2CC(C(=O)NCCC(C)C)CC2=O)cc1 (stereo not drawn) | 8%
COc1ccc(CN2CC(C(=O)NCCN3CCOCC3)CC2=O)cc1 (stereo not drawn) | 3%
O=S(=O)(c1cccs1)N1CCN(Cc2nc3ccccc3s2)CC1 | 14%
CCC(C)NC(=O)c1ccccc1NC(=O)CN1C(=O)c2ccccc2S1(=O)=O (stereo not drawn) | 9%
O=C(COc1ccccc1Cl)N1CCN(c2ccc(F)cc2)CC1 | -9%
COc1ccccc1N1CCN(CC(=O)Nc2ccc(CN3CCCCC3)cc2)CC1 | 7%
O=C(CN1CCN(S(=O)(=O)c2ccc(F)cc2)CC1)Nc1cc(C(F)(F)F)ccc1Cl | 14%
O=C(CSc1ccc2c(c1)OCCO2)NC(=O)NC1CCCC1 | -9%
Cc1cc(C)n2nc(SCC(=O)N(C(C)C)C(C)C)nc2n1 | -15%
Cc1nc(N2CCN(c3ncccn3)CC2)c2oc3ccccc3c2n1 | -7%
O=C(OCC(=O)N1CCCC1)c1cncc(Br)c1 | 15%
Cc1cc(C)c(C#N)c(SCS(=O)Cc2ccc(Cl)cc2)n1 (stereo not drawn) | 0%
CCc1nc(SCC(=O)Nc2ccnc3ccccc23)n[nH]1 | 2%

Reprinted from the part before: 2 entries; new compounds follow.
SMILES | HSD17B inh
Cc1cc(C)c(C#N)c(SCS(=O)Cc2ccc(Cl)cc2)n1 (stereo not drawn) | 0%
CCc1nc(SCC(=O)Nc2ccnc3ccccc23)n[nH]1 | 2%
CN(C)C(=O)c1ccc(-c2ccc3ncnc(N(C)C)c3c2)cc1 | -1%
CCCc1[nH]nc2c1C(c1ccccc1OCC)C(C#N)=C(N)O2 (stereo not drawn) | 1%
CCNc1ncc2nc(C)c(=O)n(Cc3ccc(F)cc3)c2n1 | 7.9µM*
CCOC(=O)c1c(C)c(C(=O)Nc2ccc3c(c2)OCCO3)c(C)n1CC | 1%
CCCOc1ccc(NC(N)=O)cc1OCCC | 3%
O=C(CN1CCN(c2ccc(F)cc2)CC1)Nc1ccc(-n2cnnn2)cc1 | -5%
C/C(=N\O)C1/C(=N/O)CC2C1C2(C)C (stereo not drawn) | -2%
CC(C)c1nccn1S(=O)(=O)c1cc(Cl)ccc1Cl | -3%
COCCNC(=O)c1cc(-c2ccc(Cl)c(Cl)c2)on1 | 5%
c1ccc(N2CCN(Cc3ccsc3)CC2)nc1 | 8%
CCSCCNC(=O)c1cncc(Br)c1 | 2%
COCCNC(=O)c1cc2sc3ccccc3c2s1 | 1%
O=C(Nc1ccc2sccc2c1)c1ccc(Cl)s1 | -29%
CSc1nncn1/N=C/c1cc(Cl)ccc1F | -2%
Cc1ccnc(NC(=O)CCC(=O)N(CC(=O)NCC2CCCO2)Cc2ccc(F)cc2)c1 (stereo not drawn) | -2%
CCn1cc(S(=O)(=O)CC(=O)NC2CCCCC2)c2ccccc21 | 15%
COc1ccc(-c2noc(CSc3nc4ccccc4c(=O)n3-c3ccccc3)n2)cc1OC | -1%
O=S(=O)(NCCCO)c1ccc2c(c1)Cc1cc(S(=O)(=O)NCCCO)ccc1-2 | -1%
O=C(O)CCC(NS(=O)(=O)c1ccc(N2CCCC2=O)cc1)C(=O)O (stereo not drawn) | 8%
CC(NS(=O)(=O)c1ccc(CCC(=O)N2CCN(C)CC2)cc1)c1ccccc1 (stereo not drawn) | 9%
CC(=O)CCc1oc2ccc(NC(C)=O)cc2c1-c1ccc(C)o1 | 13µM*
CCOC(=O)C1=C(C)N(c2ccccc2)C(=O)C1CC(=O)O (stereo not drawn) | -7%
CCN=C(NCC)SC1CC(=O)N(c2ccccc2)C1=O (stereo not drawn) | -10%
COCC(=O)Nc1nc2ccc(S(C)(=O)=O)cc2s1 | -9%
O=C(c1ccc(=O)n(Cc2ccccc2)n1)N1CCN(C/C=C/c2ccccc2)CC1 | ?
OCCN1CN=C(Nc2nc3ccccc3o2)NC1 | 8%
COc1ccc(N2C(=NC(C)=O)SC3CS(=O)(=O)CC32)cc1OC (stereo not drawn) | 1%
Oc1ccccc1-c1cc(C(F)(F)C(F)F)[nH]n1 | -19%
CCOC(=O)N1CCN(C(=O)C2CC(c3ccccc3OC)=NO2)CC1 (stereo not drawn) | 1%
Cc1cc(C)cc(N2CCN(C(=O)N3CCOCC3)CC2)c1 | -4%

An excerpt of these results, with each value named.
COCC(=O)Nc1nc2ccc(S(C)(=O)=O)cc2s1
  HSD17B inh: -9%

O=C(c1ccc(=O)n(Cc2ccccc2)n1)N1CCN(C/C=C/c2ccccc2)CC1
  HSD17B inh: ?

More entries.
SMILES | HSD17B inh
CC1CCCN(S(=O)(=O)c2ccc(NC(=O)c3cccc(-n4cnnn4)c3)cc2)C1 (stereo not drawn) | -14%
O=C1CCCN1CCCN1C(=O)N[C@@H](Cc2ccccc2)C1=O | 0%
CCC1(CC)C(=O)C(C)(C)C(=O)OC1c1cccs1 (stereo not drawn) | -3%
CCn1c(SCC(=O)NCCOc2ccccc2)nc2ccccc2c1=O | -2%
N#C/C(=C(/O)CN1C(=O)c2ccccc2C1=O)c1nc2ccccc2[nH]1 | -3%
COc1ccc(CCNc2ncnc3nc[nH]c23)cc1OC | 7%
Cc1ccc(N2C(=O)C(Cl)=C(NCCO)C2=O)c(C)c1 | -3%
CCOC(=O)N/N=C1/C[C@@H](O)[C@@H](O)[C@@H]2[C@@H]3C(=O)N(Cc4ccccc4)C(=O)[C@H]3CC[C@@H]12 | 3%[11.4 µM]
O=C(c1ccccc1Cl)N1CCN(c2ccccn2)CC1 | 32µM*
Cn1c(CNc2ccc(Cl)cc2)nnc1SCc1ccccc1 | 7%
Cc1cc(C)n2cc(CSc3nnnn3-c3ccccc3C)nc2n1 | ?
COc1ccc(N2CCN(C(CNS(=O)(=O)c3cc(F)ccc3F)c3cccnc3)CC2)cc1 (stereo not drawn) | 5%
CCOc1ccc2nc(Nc3nc4c(c(=O)[nH]3)CCC4)nc(C)c2c1 | -6%
C[N+](C)(C)/N=C\c1ccc(O)c(O)c1 | -2%[11.4 µM]
Cc1cccc(CNc2cc(-c3ccccc3CN(C)C)ncn2)c1 | ?
O=C1N2c3ccccc3CCc3cccc(c32)C1(O)C(F)(F)F (stereo not drawn) | -4%
C/C=C/Cn1c(N(C)Cc2ccccc2)nc2c1c(=O)[nH]c(=O)n2C | 9%
COc1ccc2[nH]cc(C(O)CN3CCN(c4ccccc4)CC3)c2c1 (stereo not drawn) | -1%
Cc1ccccc1-c1ccc2ncnc(N(C)Cc3ccco3)c2c1 | -16%
N#CCc1nc(CSc2nc3ccccc3o2)cs1 | -11%
O=C(CN1CCN(c2ccccc2F)CC1)c1ccc2cc[nH]c2c1 | 25µM*
CC(C)CN(CC(C)C)S(=O)(=O)N1CCC(C(=O)NCCN2CCOCC2)CC1 | -1%
CC(C)(C)OC(=O)N1CCCC1C(=O)NCCc1ccccc1 (stereo not drawn) | -2%
c1ccc([C@H](CCN2CCCC2)c2ccccn2)cc1 | 4%[11.4 µM]
CCOC(=O)C1=C(CS(=O)(=O)c2ccccc2)NC(=O)NC1c1ccccc1 (stereo not drawn) | -2%
O=C(CN1C(=O)CCSc2ccccc21)Nc1ccc(F)cc1 | 9%
COc1ccc(-n2c(=O)cnc3cnc(Oc4cccc(Cl)c4)nc32)cc1 | 8%
N#Cc1ccc(CN2CCCC3(CCNCC3)C2)cc1 | -11%
Cc1cc(C(=O)O)c(S(C)(=O)=O)s1 | 3%
CC(C)(C)c1ccc(OCC(=O)NCc2ccco2)cc1 | -3%
COc1ccc(CNc2ncncc2-c2ccccc2C(F)(F)F)c(OC)c1 | -1%
Cn1c(=O)c2c(nc(CN3CCCCC3)n2Cc2c(F)cccc2Cl)n(C)c1=O | 32µM*
CCS(=O)(=O)Nc1ccc(-c2nnc(SCC(=O)c3ccc(NC(C)=O)c(OC)c3)o2)cc1 | 19%
CCn1c(SCC(=O)NCc2ccccc2)nc2ccccc2c1=O | 5%
O=C1CSC(c2cccnc2)N1C1CCCCC1 (stereo not drawn) | 0%
CCOC(=O)c1ccc(N2CN=C3SCC(=O)N3C2)cc1 | 6%
Cc1noc(/C=C/N(C)C)c1S(=O)(=O)N(C)CC(=O)N1CCc2ccccc21 | -3%
CCCc1nnc(NC(=O)c2cc(OC)cc(OC)c2)s1 | -11%
COc1ccc(C(=O)N2CCN(c3nc4ccccc4o3)CC2)cc1OC | 3%
COc1ccc(-n2ncc3c(NCc4ccccn4)ncnc32)cc1 | ?
CCOc1ccc(NC(=O)c2cc3n(n2)C(C(F)(F)F)CC(c2ccco2)N3)cc1 (stereo not drawn) | -6%
COc1ccccc1-c1cc(C(=O)NC(C)C)no1 | -28%
Cc1noc(C)c1-c1nccc(N2CCN(C)CC2)n1 | 18%
CCOC(=O)CSc1nc2c(c(=O)n1-c1ccc(OC)cc1)SCC2 | ?
O=C(O)Cc1csc2ccccc12 | 5%
Cc1ccc(-c2noc(COc3ccccc3C)n2)cc1 | -1%
CCOc1ccccc1NS(=O)(=O)c1cccs1 | -7%
COc1ccc(-c2ccc(=O)n(Cc3cc(=O)n4ccccc4n3)n2)cc1 | ?
Cc1c(/C=N/n2cnnc2)c2ccccc2n1CCOc1ccccc1 | -3%
CCN(CC)CCOC(=O)c1c(C)oc2ccc(OC)cc12 | 1%

Following part
SMILES | HSD17B inh
COc1cc2cc3c(N)c(C(=O)NCc4ccco4)sc3nc2cc1OC | 8%
Cc1cc(C)n(C(=O)c2cc3sccc3[nH]2)n1 | -19%
CC(=O)Nc1ccc(S(=O)(=O)N2CCCc3ccccc32)cc1 | -1%
O=C(Cc1ccccc1)Nc1nonc1NC(=O)c1ccccc1 | 6%
Cc1ccc(C2C(C(=O)c3sc(C)nc3C)=C(O)C(=O)N2CCN(C)C)o1 (stereo not drawn) | 4%
CCOC(=O)c1nnn(-c2nn3nnnc3c3ccccc23)c1C | 8%
CC(=O)NCCNc1ncncc1-c1ccc(N(C)C)cc1 | ?
COC(=O)c1c(-c2ccccc2)csc1NC(=O)c1ccco1 | 32µM*
c1coc(CNc2ncnc3c2oc2ccccc23)c1 | 4%

Screening results as filed in PubChem BioAssay.
